Screening data as filed in PubChem.
KCNQ2 inh: KCNQ2 channel blockers in CHO-K1 cells – cell-based, FluxOR thallium flux, B-score, primary screen (AID 2156). O88943. actives 1.1% (n = 310,000). B-score at 10 µM. 20 min; active compounds read low; only compounds with negative scores are shown here; some inactives read as strong as hits;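 active means fluorescence ratio B-score at most minus 3 library SDs, with starting brightness B-score within 2 library SDs, cut at about -5.5 in these data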
Target sequence (O88943 whole entry, looked up): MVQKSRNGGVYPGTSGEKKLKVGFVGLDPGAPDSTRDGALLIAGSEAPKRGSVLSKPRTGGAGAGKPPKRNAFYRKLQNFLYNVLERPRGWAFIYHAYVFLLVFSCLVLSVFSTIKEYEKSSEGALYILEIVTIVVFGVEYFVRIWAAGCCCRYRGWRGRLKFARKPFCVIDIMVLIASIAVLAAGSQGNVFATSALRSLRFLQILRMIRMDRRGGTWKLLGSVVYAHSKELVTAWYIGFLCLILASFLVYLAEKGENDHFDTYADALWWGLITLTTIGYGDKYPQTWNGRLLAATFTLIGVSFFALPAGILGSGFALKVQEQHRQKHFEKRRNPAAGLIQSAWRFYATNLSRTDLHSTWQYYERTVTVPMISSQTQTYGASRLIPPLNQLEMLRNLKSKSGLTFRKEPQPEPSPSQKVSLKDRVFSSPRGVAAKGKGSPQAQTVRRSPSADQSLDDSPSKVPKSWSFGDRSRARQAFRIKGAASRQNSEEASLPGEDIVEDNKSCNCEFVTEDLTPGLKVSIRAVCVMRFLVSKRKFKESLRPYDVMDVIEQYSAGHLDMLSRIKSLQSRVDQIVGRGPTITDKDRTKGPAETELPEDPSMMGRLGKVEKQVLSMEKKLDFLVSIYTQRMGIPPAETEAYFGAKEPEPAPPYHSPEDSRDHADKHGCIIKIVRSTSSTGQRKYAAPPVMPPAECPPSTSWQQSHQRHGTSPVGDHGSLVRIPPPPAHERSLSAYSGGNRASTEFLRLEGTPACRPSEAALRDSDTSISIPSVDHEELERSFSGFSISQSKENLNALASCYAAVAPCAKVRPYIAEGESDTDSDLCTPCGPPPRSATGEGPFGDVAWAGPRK
KCNQ2 inh baseline: also measured in KCNQ2 inh; calls as there; B-score; measured here: initial fluorescence intensity artifact check;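 brightness before thallium and not channel activity; 0 = typical well and far values either way flag optical interference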
* marks the source's active call; other numbers are inactive results; i = inactive.

SMILES	KCNQ2 inh	KCNQ2 inh baseline
Cc1ccc(C(=O)N/C(=C/c2ccco2)C(=O)N2CCOCC2)cc1	i	-0.01
Cc1cnc(NC(=O)C2(c3ccccc3)CC2)s1	i	0.01
COc1ccc(OC(C)C(=O)NCC2CCCO2)cc1 (configuration not stated)	i	-0.42
COCCn1c(=O)[nH]c2cc(C(=O)Nc3cccc(C(C)=O)c3)ccc2c1=O	i	1.19
COc1ccc(CCNC(=O)Cn2cccc2C(=O)c2ccccc2C)cc1OC	i	-0.19
COC(=O)N1CCc2c(sc(NC(=O)C3COc4ccccc4O3)c2C(N)=O)C1 (configuration not stated)	i	0.63
Cc1ccccc1OCC(=O)NNC(=O)C1CCN(c2ncnc3sc(C)c(C)c23)CC1	i	-0.63
O=C(N/N=C/c1ccco1)c1ccc(NC(=O)c2ccc(Cl)cc2)cc1	i	-0.34
N=c1c2c3c(sc2ncn1CCN1CCOCC1)CCCC3	i	1.07
CCN(C(=O)c1cc([N+](=O)[O-])ccc1NCc1cccnc1)c1ccccc1	i	1.7
COC(=O)C1(C(F)(F)F)N=C2Sc3ccccc3N2C(N2CCOCC2)=N1 (configuration not stated)	i	-0.27
COc1ccc(-c2nn(-c3ccccc3)cc2/C=C/C(=O)NCCCn2ccnc2)cc1OC	i	4.71
COc1cccc(OC)c1C(=O)Nc1ccccc1Sc1ccccc1	-6.98*	-1.88*
O=C(NNc1cccc(Cl)n1)Nc1ccc(Cl)cc1	i	-0.4
COCCNC(=O)C1CC(c2ccc(C(F)(F)F)cc2)=NO1 (configuration not stated)	i	0.43
COc1ccc(C(=O)N2CCN(Cc3cc(OC)c(O)c(OC)c3)CC2)cc1OC	i	1.6
O=C(NCCN1CCOCC1)C1CCC(=O)N1C1CCCCC1 (configuration not stated)	i	-0.02
O=C(N/N=C/c1ccc(OCc2cnc(Cl)s2)cc1)c1ccncc1	i	-0.01
COc1ccc(NC(=O)c2cc(Br)ccc2Cl)c([N+](=O)[O-])c1	i	-0.12
COc1ccc(C2C(C#N)=C(N)Oc3cc(C)[nH]c(=O)c32)cc1OC (configuration not stated)	i	0.53
O=C(CSc1nnc(Cc2ccccc2)o1)c1ccc(F)cc1	i	-2.08
CCc1nnc(NC(=O)c2cccc(S(=O)(=O)N(C)c3ccccc3)c2)s1	i	0.87
Cc1ccnc(NC(=O)c2cccc3ccccc23)c1	i	0.01
COc1c(Cl)cccc1-c1cn2ccc(C)cc2n1	i	-0.59
COc1ccc(CC(=O)NNC(=O)CSc2nnc(C)n2-c2ccccc2)cc1	i	2.07

7 entries from above, with two lines to a compound:
The line under a structure holds: KCNQ2 inh	KCNQ2 inh baseline
O=C(NCCN1CCOCC1)C1CCC(=O)N1C1CCCCC1 (configuration not stated)
  i	-0.02
CCc1nnc(NC(=O)c2cccc(S(=O)(=O)N(C)c3ccccc3)c2)s1
  i	0.87
COc1ccc(OC(C)C(=O)NCC2CCCO2)cc1 (configuration not stated)
  i	-0.42
COc1ccc(-c2nn(-c3ccccc3)cc2/C=C/C(=O)NCCCn2ccnc2)cc1OC
  i	4.71
COCCNC(=O)C1CC(c2ccc(C(F)(F)F)cc2)=NO1 (configuration not stated)
  i	0.43
COc1ccc(NC(=O)c2cc(Br)ccc2Cl)c([N+](=O)[O-])c1
  i	-0.12
Cc1cnc(NC(=O)C2(c3ccccc3)CC2)s1
  i	0.01

More structures
SMILES	KCNQ2 inh	KCNQ2 inh baseline
COc1ccc(N2CCN(CC(O)c3c[nH]c4ccc(OC)cc34)CC2C)cc1 (configuration not stated)	i	-0.83
N#Cc1c(NC(=O)CSc2n[nH]c(N)n2)oc(-c2ccccc2)c1-c1ccccc1	i	0.44
Cc1ccccc1C(=O)Nc1ccccc1-n1cccc1	i	-1.83
COc1ccc(OC)c(/C=N\NC(=O)c2ccc(=O)n(C)c2)c1	i	-1.15
COc1ccc(NS(=O)(=O)c2cc(OC)ccc2OC)cc1	i	1.72
CCOC(=O)C1(CCCc2ccccc2)CCN(Cc2cnn(C)c2)CC1	i	-0.1
COc1cc(C(=O)NCCCOC(C)C)ccc1OC1CCN(C(C)=O)CC1	i	0.56
Cc1ccc(-c2cc(-c3ccccc3)c(C#N)c(N)n2)o1	i	0.84
O=C(NCc1cccs1)c1cccn2c(=O)c3sccc3nc12	i	1.99
CCN(CC)CCCNC(=O)c1ccc(CS(=O)(=O)c2ccccc2OC)o1	i	-0.03
O=C(Oc1ccc2ccc(=O)oc2c1)N1CCOCC1	i	-0.35
COc1ccc(S(=O)(=O)N2CCCCC2)cc1	i	-0.88
O=C(CN1CCN(c2ccccc2O)CC1)NC(=O)NC1CCCC1	i	-1.5
C(=N\N(c1ccccc1)c1ccccc1)/c1ccccn1	-6.21*	-0.43*
CCOC(=O)c1cc(OC(=O)c2ccccc2OC)n(-c2ccccc2)n1	i	0.1
CN(Cc1cccc(C(F)(F)F)c1)C(=O)C1CCC(=O)N(CC2CCCCC2)C1 (configuration not stated)	i	-0.72
CCOC(=O)Cc1nn(Cc2nc(-c3ccc(C#N)cc3)cs2)c(=O)c2ccccc12	i	1.21
COc1ccc(C(=O)Nc2sc(C)c(-c3ccccc3)c2C#N)cc1OC	-6.36*	-1*
CCOC(=O)C1(CC2CC2)CCN(Cc2ccc3cccc(F)c3n2)CC1	i	-0.4
CCn1c(O)c(C=NCc2cccs2)c(=O)n(CC)c1=S	i	-0.03
NC(=O)c1oc2ccccc2c1NC(=O)c1ccc(F)cc1	i	0.83
COc1cccc(-c2noc(C3CCCN(S(=O)(=O)c4cccc(Cl)c4C)C3)n2)c1 (configuration not stated)	-5.96*	-1.92*
CCCCn1c(SCC(=O)c2ccc(OC)c(OC)c2)nc2cc(S(N)(=O)=O)ccc21	i	1.04
N#CCSC1=Nc2ccccc2C2=NC(CCC(=O)N3CCN(c4ccccc4)CC3)C(=O)N12 (configuration not stated)	i	2.54
O=C(COC(=O)c1cccc(S(=O)(=O)N2CCc3ccccc32)c1)Nc1ncc(C(F)(F)F)cc1Cl	i	-1.48

(cont.)
SMILES	KCNQ2 inh	KCNQ2 inh baseline
COCC(=O)N(c1ccc(C(C)C)cc1)C1C=CS(=O)(=O)C1 (configuration not stated)	i	-0.01
Cc1nn(-c2ccccc2)c(N2CCCC2)c1/C=C1\N=C(c2ccc(F)cc2)OC1=O	i	1.6
Cc1cc(S(=O)(=O)Nc2ccc(C(=O)NCCCn3ccnc3)cc2)ccc1F	i	0.58
O=C1c2ccccc2N(Cc2ccc(Cl)cc2)C2=NCCN12	i	0.79
CSCCC(NC(=O)c1ccc([N+](=O)[O-])cc1Cl)C(=O)OCC(=O)NC(=O)CN1CCCC1=O (configuration not stated)	i	0.17
CC1CCN(S(=O)(=O)c2ccc(NC(=O)N3c4ccccc4Sc4ccccc43)cc2)CC1	i	-0.01
CCc1ccc(C(=O)C(C)OC(=O)Cn2cnc3c2c(=O)n(C)c(=O)n3C)cc1 (configuration not stated)	i	-2.32
CN(C)CCCCOc1ccc(Br)cc1Cl	i	-0.16
Cc1cc(C)nc(N/N=C/c2ccccc2OCc2ccc(Cl)cc2)n1	i	0.12
Cc1ccc(-c2nc3ccccc3c(=O)n2NC(=O)c2cccs2)cc1	i	1.9
Cc1nnc(SCc2cnc(-c3ccccc3)o2)[nH]c1=O	i	1.6
C=CCNC(=O)c1ccncc1	i	1.07
CCOC1=C/C(=C/c2c(N)n3nc(S(=O)(=O)CC)sc3nc2=O)C=CC1=O	i	1.89
COc1ccccc1N1C(=O)CC1(C#N)c1ccc(OCc2ccccc2)cc1 (configuration not stated)	i	0.08
COc1ccc(N(CC(=O)N2CCN(c3cccc(C)c3)C(C)C2)S(=O)(=O)c2c(C)n[nH]c2C)cc1 (configuration not stated)	i	0.06
CC(=O)Nc1ccc(Nc2nc3ccccc3nc2NS(=O)(=O)c2ccccc2)cc1	i	-0.15
COc1ccccc1-n1c(SCC(=O)Nc2ccc(F)cc2)nc2c(c1=O)SCC2	i	-1.57
S=C1CCC(c2ccc(Cl)cc2)=NN1c1ccccc1	i	-1.22
CCOC(=O)C1(CC2CCCCO2)CCN(Cc2nc3ccccc3nc2C)CC1 (configuration not stated)	i	1.81
CCCCN1C2CCCC1CC(NC(=O)c1ccccc1Cl)C2 (configuration not stated)	i	-0.37
C[C@H](NC(=O)c1nc[nH]c1C(=O)NC(c1ccccc1)c1ccccc1)C(=O)OCc1ccccc1	i	0.56
Cc1ccc(Cl)c(NC(=O)COC(=O)c2ccccc2C(=O)c2ccc(Cl)c([N+](=O)[O-])c2)c1Cl	i	0.55
COc1ccc(NS(=O)(=O)c2cc(N)ccc2N2CCOCC2)cc1	i	0.15
CCOc1ccc(CN2CCN(Cc3[nH]c4ccccc4c3C)CC2CCO)cc1 (configuration not stated)	i	0.23
S=c1nc(NCc2ccc3c(c2)OCO3)c2ccccc2[nH]1	i	-0.27

(list continues)
SMILES	KCNQ2 inh	KCNQ2 inh baseline
Cc1nc(=O)c(-c2ccccc2)c(C)n1-c1ccccc1C(=O)O	i	0.05
CCCCCCC(O)(CCN1CCCCC1)c1ccccc1 (configuration not stated)	i	2.64
CCOc1ccc(N2CC(C(=O)Nc3nnc(Cc4ccc(OC)c(OC)c4)s3)CC2=O)cc1 (configuration not stated)	i	-0.05
Cn1c(Cc2ccccc2)nnc1SCC(=O)Nc1ccccc1	i	0.58
CN(CC(=O)NCc1ccccc1Cl)S(=O)(=O)c1ccc2c(c1)n(C)c(=O)c(=O)n2C	i	1.09
CCc1ccc(Nc2n[n+](-c3ccccc3)c(-c3c(Cl)cccc3Cl)s2)cc1	i	-0.13
O=C(Nc1nc(-c2cc(Cl)sc2Cl)cs1)c1ccccc1	i	-0.48
COc1cccc(C(=O)NCC(c2cccs2)N2CCc3ccccc32)c1 (configuration not stated)	i	1.25
COc1cc2c(cc1OC)C(C)N(S(=O)(=O)c1cnc(Cl)c(Cl)c1)CC2 (configuration not stated)	i	1.57
NNC(=S)Nc1ccccc1Cl	i	1.7
CC(C)(C)NC(=O)NC(=O)CN1CCN(C(c2ccccc2)c2ccccc2)CC1	i	-0.04
CC(=O)N(C)C1(c2nnnn2CCOC(=O)Nc2cccc3ccccc23)CCCC1	i	1.92
Cc1cccc(NC(=S)NNC(=O)c2ccco2)c1	i	-0.68
CCOC(=O)CSc1nc2cc(C(=O)N3CCC(C(N)=O)CC3)ccc2c(=O)n1-c1ccccc1	i	-0.32
Cc1ccc(CCC(=O)Nc2nccs2)o1	i	-0.43
COC(=O)c1sccc1NC(=O)/C=C/c1ccc(Cl)cc1	i	-1.8
CC1(C)NC(=O)N(CC(O)COc2ccccc2C(=O)Nc2ccccc2)C1=O (configuration not stated)	i	-1.8
CCN1CCN(c2cc(N3CCc4ccccc4C3)c(F)cc2[N+](=O)[O-])CC1	-6.94*	-1.84*
O=C1c2ccccc2C(=O)N1CCCCN(C(=O)c1cccc([N+](=O)[O-])c1)c1ccc(Cl)cc1	i	0.49
CCOc1ccc(NC(=O)c2cccc3ccccc23)cc1	i	-0.25
Cc1nc2ccc(Br)cn2c1NC(C)(C)C	i	-0.15
CC1=C(C(=O)OC2CCCC2)C(c2coc3ccccc3c2=O)C2=C(CCCC2=O)N1 (configuration not stated)	i	-1.3
Cc1ccccc1C(=O)NC(=S)Nc1ccc(Oc2ccc(Cl)cc2)cc1	i	-1.13
Nc1ccccc1SCC(=O)N1CCc2ccccc21	i	1.33
CCOC(=O)[C@H]1CCC[C@@H](NS(=O)(=O)c2ccc(NC(C)=O)cc2)C1	i	-1.39

Structures listed so far that have bromine:
SMILES	KCNQ2 inh	KCNQ2 inh baseline
COc1ccc(NC(=O)c2cc(Br)ccc2Cl)c([N+](=O)[O-])c1	i	-0.12
CN(C)CCCCOc1ccc(Br)cc1Cl	i	-0.16
Cc1nc2ccc(Br)cn2c1NC(C)(C)C	i	-0.15

The list goes on.
SMILES	KCNQ2 inh	KCNQ2 inh baseline
O=S(=O)(c1cc(Cl)ccc1Cl)N1CCc2ccccc21	i	-1.85
CC(/C=C/C=C/c1ccccc1)=N/NC(=O)C(O)c1ccccc1 (configuration not stated)	i	0.96
COC(=O)c1ccc(NC(=O)CCN2C(=O)C3C4CCC(C4)C3C2=O)cc1 (configuration not stated)	i	-0.2
OC(C#CCN1CCCC1)(c1ccccc1)c1cccnc1 (configuration not stated)	i	-0.86
CC1(C)C2CCC1(CS(=O)(=O)N1CCCc3ccccc31)C(=O)C2 (configuration not stated)	i	-0.28
COc1cc2ncc(C(=O)c3ccccc3)c(N3CCN(Cc4ccccc4)CC3)c2cc1OC	i	-0.67
O=C(C1CCN(Cc2ccc(F)cc2)CC1)N(CCc1ccccc1)Cc1ccccc1	i	0.07
CCN1CCN(c2ccc(NC(=O)c3ccc(Cl)c(N4CCCC4=O)c3)cc2)CC1	i	-1.06
Cc1ccc(-c2nc(NC(=O)c3cc(C(C)(C)C)nn3C)sc2C)cc1Cl	i	0.86
Nc1nnnn1CC(=O)N/N=C/c1cc([N+](=O)[O-])ccc1Cl	i	0.09
O=C(NCCNC(=O)c1ccc([N+](=O)[O-])cc1)c1ccncc1	i	-0.02
O=C(NC1CC2CCCC(C1)N2C(=S)NCCc1ccccc1)C1CC1 (configuration not stated)	i	-0.77
CC(C)(C)c1cc(NC(=O)Nc2ccc(Br)cc2Cl)no1	i	0.34
Cc1ccc(C(=O)Nc2ncccc2S(=O)(=O)c2ccccc2)cc1	i	0.67
CCn1c(=O)c(C(=O)Nc2ccccc2)c(O)c2ccccc21	i	2.39

Complete entries, looked up by structure.
`CC1(C)C2CCC1(CS(=O)(=O)N1CCCc3ccccc31)C(=O)C2` (configuration not stated) reads KCNQ2 inh: i; KCNQ2 inh baseline: -0.28
`O=C(NCCNC(=O)c1ccc([N+](=O)[O-])cc1)c1ccncc1` reads KCNQ2 inh: i; KCNQ2 inh baseline: -0.02

This is a subset; the hit share may differ from the screen's.
